# High-throughput results: PubChem, several laboratories
# YopH PTP inh: YopH tyrosine phosphatase inhibitors, primary screen, biochemical, fluorescence Ex485/Em525 | YopH tyrosine phosphatase [Yersinia enterocolitica] | inhibition, %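 (about 10 µM by stock and volumes)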 | actives 0.16% (n = 140,000) | AID 898, 2007;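 active = inhibition of 50% or more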;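 also: controls were vehicle for no effect and minimum signal wells for full effect; inactives centre near -20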
# RecA intein inh: Mtb RecA intein splicing inhibitors, primary screen, biochemical, fluorescence, HTS | Protein RecA (Mycobacterium tuberculosis (strain ATCC 25618 / H37Rv)), P9WHJ3 | inhibition, %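 (about 9 µM by stock and volumes)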 | actives 0.75% (n = 290,000) | cell-free RecA intein splicing; in the data active = inhibition above about 30%; inconclusive = no clear call, values can overlap the other calls;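 also: 0% = vehicle wells and 100% = reference inhibitor control wells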
# Target sequence (P9WHJ3 whole entry, looked up): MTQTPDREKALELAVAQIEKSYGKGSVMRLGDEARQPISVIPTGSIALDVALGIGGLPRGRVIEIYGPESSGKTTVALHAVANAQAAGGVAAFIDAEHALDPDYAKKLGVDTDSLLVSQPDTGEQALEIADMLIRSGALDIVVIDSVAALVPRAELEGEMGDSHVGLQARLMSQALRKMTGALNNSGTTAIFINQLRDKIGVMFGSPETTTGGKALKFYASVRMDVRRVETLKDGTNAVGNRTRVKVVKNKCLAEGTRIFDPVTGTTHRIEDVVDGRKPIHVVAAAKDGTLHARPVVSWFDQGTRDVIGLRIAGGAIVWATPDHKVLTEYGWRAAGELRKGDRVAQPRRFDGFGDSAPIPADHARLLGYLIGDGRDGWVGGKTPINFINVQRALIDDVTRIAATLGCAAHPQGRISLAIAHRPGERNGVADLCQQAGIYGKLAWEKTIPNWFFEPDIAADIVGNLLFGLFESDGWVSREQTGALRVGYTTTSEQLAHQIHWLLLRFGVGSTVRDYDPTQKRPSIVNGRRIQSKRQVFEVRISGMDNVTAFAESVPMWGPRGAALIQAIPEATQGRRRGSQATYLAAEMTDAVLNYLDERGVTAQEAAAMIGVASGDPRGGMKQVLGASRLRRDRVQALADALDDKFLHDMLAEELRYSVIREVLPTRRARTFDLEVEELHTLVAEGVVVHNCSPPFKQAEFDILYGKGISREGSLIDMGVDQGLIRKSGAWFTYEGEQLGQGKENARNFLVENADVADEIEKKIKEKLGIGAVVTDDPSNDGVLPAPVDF
# Mtb growth: M. tuberculosis H37Rv growth inhibitors, H37Rv strain (AID 1626) | one-dose inhibition, % at 10 µM; IC50 in µM for titrated hits | M. tuberculosis H37Rv growth inhibition; higher % means a stronger effect | actives 0.95% (n = 220,000);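 active = confirmed in a dose series; inconclusive = inhibition above 80% but not taken into the dose series; inactive = below 80% or under 30% at every dose of the series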;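 also: bacteria incubated seven days before Alamar blue readout; 0% = bacteria only wells and 100% = bacteria with antibiotic wells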
# Mtb bLac sens: beta-lactam sensitization of Mtb H37Rv, H37Rv | M. tuberculosis H37Rv growth with meropenem, percent inhibition; hits of this screen are not shown here | inhibition, % at 25 µM | actives 0.27% (n = 330,000) | AID 434955, 2010;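 active = about 74% or more and at least 40 points above the plate without the antibiotic, then above 30% in a dose series; inconclusive = first-round hits that could not be retested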;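 also: growth measured after seven days incubation then overnight dye step; 0% = bacteria only wells and 100% = bacteria with antibiotic; twin plates without the antibiotic show which effects depend on it; some results filed as inactive read as strong as hits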
# Arbovirus anti: antivirals against arbovirus infection, primary screen, cell-based, full library, 10K replicate subset; actives 0.37% (n = 200,000); arbovirus infection cell-based antiviral screen; inhibition, % at 10 µM;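 active = inhibition from about 30%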;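 also: bluetongue infection of BSR cells; cell survival read as ATP light after 72 h; 0% = infected wells without compound and 100% = uninfected wells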
# Arbovirus anti repeat: also measured in Arbovirus anti; calls as there; inhibition, %; measured here: 10K subset replicate screen; many hits read low in the repeat;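 first of two repeat runs on a subset; 0% = infected and 100% = uninfected wells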
# Starred values were filed as active, the others as inactive; ? = inconclusive; · = no result given. The list is partial; the hit share may differ from the screen's.
SMILES,YopH PTP inh,RecA intein inh,Mtb growth,Mtb bLac sens,Arbovirus anti,others
Cc1c(-c2ccccc2)[n+](=O)c2c(n1[O-])CCCC2,·,0.1,-8%,3,·,
CCCC(=O)Nc1ccc2c(c1)nc(CCNC(=O)c1ccco1)n2C,·,0.1,-9%,-6,·,
O=C1OC[C@H](Cc2ccc3c(c2)OCO3)/C1=C\c1ccc2c(c1)OCO2,·,2.8,·,3,·,
Cc1cc(C)nc(N2CCCC(C(=O)Nc3nc4ccc(S(C)(=O)=O)cc4s3)C2)n1 (configuration not stated),-26,-50,-1%,53,10,
Cc1ccc(-c2nc(-c3cccnc3)sc2CC(=O)O)cc1,·,-6.0,-4%,-3,·,
CC(CNC(=O)CCS(=O)(=O)c1ccc2c(c1)oc(=O)n2C)c1ccccc1 (configuration not stated),·,-0.9,·,-5,·,
COC(=O)c1sc2nc(SCc3cccc(F)c3)n(N)c(=O)c2c1C,-17,-1.6,1%,-1,-6,
O=C(c1cccc2c1-c1ccccc1/C2=N/O)N1CCCCC1,-13,2.6,-9%,1,9,Arbovirus anti repeat=0
Cc1[nH]c2ccccc2c1-c1nc(-c2ccc(Cl)cc2)nnc1-c1ccccc1,·,-8.1,8%,4,-10,
Brc1ccc2nc(-c3ccncc3)c(NC3CCCC3)n2c1,·,-6.3,0%,3,-4,
COc1ccc(C2=NNC(c3cccs3)=Nc3ccc(OC)cc32)cc1,47,7.4,5%,88,0,
Cc1ccc(S(=O)(=O)N2CCC(C(=O)NCCc3ccccn3)CC2)cc1,·,2.1,4%,1,-4,
COC(=O)C1=C(N)Oc2cc(C)n(CC3CCCO3)c(=O)c2C1c1ccccc1OC (configuration not stated),-33,-0.8,-10%,1,3,
CCOC(=O)Nc1ccc2c(c1)N(C(=O)CN(CC)CC)c1ccccc1CC2,·,19,·,-3,·,
Cc1nnc2n(C3CCCCC3)c(=O)c3c4c(sc3n12)CCC4,-30,·,-6%,·,-6,
CC(=O)Nc1cccc(NC(=O)Nc2ccc(C(C)=O)cc2)c1,12,-0.6,-13%,-6,0,
COc1cc(/C=N/NC(=O)c2cc[n+]([O-])cc2)ccc1O,·,0.1,·,-13,·,
c1ccc(Cn2ccnc2-c2ccco2)cc1,-22,5.0,·,20,3,
CC(C)C(=O)NC(C)C(c1cccs1)N1CCN(c2ccccc2)CC1 (configuration not stated),-24,1.5,-7%,6,7,
Nc1nc(-c2cccc(F)c2)cs1,·,-5.4,11µM*,11,-12,
CCOC(=O)c1c(NC(=O)Cn2cc([N+](=O)[O-])cn2)sc2c1CCC2,-15,0.3,3%,-1,-10,
Cc1cccn2c(=O)c(/C=C(\C#N)C(=O)NC3CCS(=O)(=O)C3)c(N3CC(C)OC(C)C3)nc12 (configuration not stated),·,-97,-10%,-12,·,
CC(C)(C)C(=O)Nc1cc(NC(=O)C(C)(C)C)cc(C(=O)Nc2cc(C(=O)O)cc(C(=O)O)c2)c1,-6,-1.1,-6%,-1,0,
CCOC(=O)c1ccc(NC(=S)N(CCN2CCCCCC2)Cc2ccco2)cc1,·,-0.7,?,3,6,
O=c1[nH]c2ccccc2cc1-c1nnn(-c2ccc(F)cc2)n1,·,-2.7,-7%,-15,1,
Cc1ccccc1C(C(=O)NCc1ccccc1)N(Cc1ccco1)C(=O)c1ccccn1 (configuration not stated),-27,1.9,-4%,-2,0,
COc1ccc(-n2c(C)c(C(C)=O)c3cc(OCC(N)=O)ccc32)cc1,·,0.7,-10%,9,-6,
COC(=O)c1sccc1NC(=S)OC,·,-1.5,-1%,-7,·,
C/C(=N/NC(=O)c1cccs1)c1ccc(NC(=O)COc2ccc(Cl)cc2)cc1,2,-0.2,-5%,76,0,
CCN(CC)CCNC(=O)c1ccc(NC(=O)C2CCN(S(=O)(=O)c3ccc4c(c3)OCCO4)CC2)cc1,·,-1.6,·,-2,·,
Cc1cccc(N2CCN(C(=O)CCCn3c(=O)[nH]c4ccsc4c3=O)CC2C)c1 (configuration not stated),·,3.0,·,8,·,
Cc1occc1C(=O)Nc1ccc([N+](=O)[O-])cc1Br,·,1.5,·,3,·,
Cc1cc(Br)c(S(=O)(=O)NCCN2CCOCC2)cc1C,-50,1.1,4%,-7,6,
CCNC(=O)C1CCCN1S(=O)(=O)c1ccc(C)cc1 (configuration not stated),-5,·,0%,-3,6,
CCOP(=O)(c1ccccc1)C1(O)CCCCC1 (configuration not stated),13,-0.7,-6%,0,3,
COc1ccc(CCNC(=O)CSc2nn(-c3ccccc3)c(=S)s2)cc1OC,-32,0.0,2%,6,5,
COCCCNC(=O)c1cc(Nc2ccc(OC)cc2OC)nc2ccccc12,·,-1.1,·,2,·,
CN(C)CCN(C(=O)C1CCCCC1)c1nc2cc3c(cc2s1)OCO3,·,1.3,·,1,·,
Cc1cc(=O)oc(C)c1C(=O)NCc1ccco1,-19,-1.5,1%,-10,9,
CCOc1ccc2nc(NCCNC(=O)CC)c(C#N)cc2c1,-25,-415,-3%,-2,3,
CCN(Cc1cc(=O)oc2cc(C)ccc12)c1ccccc1,·,-2.2,·,8,·,
O=C(CN1c2ccccc2Sc2ccccc21)NNC(=O)Nc1ccc(Cl)cc1,·,-1.3,5%,-5,·,
O=C(CN1C(=O)C2C3CC(C(Br)C3Br)C2C1=O)N1CCN(Cc2ccccc2)CC1 (configuration not stated),·,0.9,-5%,0,·,
CCOC(=O)C1(C)C=C(Nc2ccc(NC(C)=O)cc2)C(=O)N1c1ccc(NC(C)=O)cc1 (configuration not stated),·,-4.0,-14%,-1,·,
O=C(CC(c1ccccc1)c1cc(Br)ccc1O)N1CCCCC1 (configuration not stated),·,1.9,-4%,-7,·,
O/N=C1\CCCc2ccccc21,·,·,2%,-3,-5,
Cc1ccc(S(=O)(=O)Cn2nnnc2C(C(C)C)N2CCN(c3nc4ccccc4s3)CC2)cc1 (configuration not stated),8,-1.9,10%,-14,-1,
Cc1c(C(=O)N(C)CCn2ccnc2C)oc2c(F)cccc12,·,-3.8,·,4,·,
CC(C)Sc1nnc(OC(=O)N(C)C)n1-c1ccccc1,·,-0.2,-2%,-7,·,
COc1ccc(Cn2c(=O)[nH]c3cc(C(=O)Nc4ccc(N5CCN(C)CC5)cc4)ccc32)cc1,-26,1.4,12%,66,-13,
# (further entries)
SMILES,YopH PTP inh,RecA intein inh,Mtb growth,Mtb bLac sens,Arbovirus anti,others
CCc1cc(-c2[nH]ncc2-c2ccc([N+](=O)[O-])cc2)c(O)cc1OC,·,16,·,-3,·,
NC(=O)CCN1CCN(CCOC2Cc3cc(Cl)ccc3Sc3ccccc32)CC1 (configuration not stated),-22,3.9,5%,3,-35,
COc1ccc(/C=C2\SC(=S)N(CCCC(=O)N3CCOCC3)C2=O)cc1OC,·,1.2,·,1,·,
CCN1CCc2c(C#N)c(NCc3ccccc3)nc(N(CC)CC)c2C1,2,·,0%,98,-6,
CCOc1ccc2nc(SCC(=O)N3CCCc4ccccc43)sc2c1,-37,7.7,-4%,-7,-8,
Cc1cc(NCCc2ccc(Cl)cc2)n2ncnc2n1,·,0.7,2%,0,4,
CC1CCCCN1CCNc1nc(=S)[nH]c2ccccc12 (configuration not stated),-33,1.3,-5%,-9,0,
CC1CCC(C(=O)NC(C(=O)N2CCC(N3CCCCC3)CC2)C(C)C)CC1 (configuration not stated),-50,-2.5,-7%,?,-6,
CCCc1ccc(-c2ccc(F)c(N)c2)nc1,-5,1.0,16%,-4,-3,
CC(C)(C)OC(=O)N1CCC(C(=O)N[C@H](Cc2ccccc2)C(=O)O)CC1,8,-2.1,-9%,1,6,

# Quoted at random: 5 records from the list, in no set order.
SMILES,YopH PTP inh,RecA intein inh,Mtb growth,Mtb bLac sens,Arbovirus anti,others
NC(=O)CCN1CCN(CCOC2Cc3cc(Cl)ccc3Sc3ccccc32)CC1 (configuration not stated),-22,3.9,5%,3,-35,
CCc1cc(-c2[nH]ncc2-c2ccc([N+](=O)[O-])cc2)c(O)cc1OC,·,16,·,-3,·,
Cc1cc(NCCc2ccc(Cl)cc2)n2ncnc2n1,·,0.7,2%,0,4,
CC1CCC(C(=O)NC(C(=O)N2CCC(N3CCCCC3)CC2)C(C)C)CC1 (configuration not stated),-50,-2.5,-7%,?,-6,
CCN1CCc2c(C#N)c(NCc3ccccc3)nc(N(CC)CC)c2C1,2,·,0%,98,-6,

# Sorted by number of heavy atoms (low to high): 3 of the compounds above
SMILES,YopH PTP inh,RecA intein inh,Mtb growth,Mtb bLac sens,Arbovirus anti,others
Cc1cc(NCCc2ccc(Cl)cc2)n2ncnc2n1,·,0.7,2%,0,4,
CCN1CCc2c(C#N)c(NCc3ccccc3)nc(N(CC)CC)c2C1,2,·,0%,98,-6,
NC(=O)CCN1CCN(CCOC2Cc3cc(Cl)ccc3Sc3ccccc32)CC1 (configuration not stated),-22,3.9,5%,3,-35,

# (more compounds)
SMILES,YopH PTP inh,RecA intein inh,Mtb growth,Mtb bLac sens,Arbovirus anti,others
COc1ccccc1CNS(=O)(=O)c1ccc2[nH]cc(C(=O)O)c(=O)c2c1,-24,1.3,-1%,-1,7,
COC(=O)C(NC(=O)Nc1ccccc1OC)C(C)C (configuration not stated),11,-0.2,8%,6,2,
Oc1c(C=Nc2cccnc2)sc2ccccc12,1,-1.3,0%,-1,-2,
CC(O)[C@H](NC(=O)C1(c2ccccc2)CCN(C(=O)OC(C)(C)C)CC1)C(=O)O (some centres not stated),-44,1.1,4%,-2,3,
COc1ccccc1/C=N/NC(=O)c1[nH]c(C)c(C(=O)N/N=C/c2ccccc2OC)c1C,-5,-8.3,-5%,6,15,
CC(C)N1C(=S)SC(C)(C)C1n1oc(=O)n(-c2ccc(Cl)c(Cl)c2)c1=O (configuration not stated),-20,4.5,·,-5,-12,
COc1cc(/C=N/n2nnnc2N)ccc1OCC#N,·,1.7,·,9,·,
Cc1nc2ccccc2nc(C)c1=NOCc1ccc(C#N)cc1,-24,1.7,5%,-2,-9,
CNC(=O)c1cccnc1Nc1cccc(C(F)(F)F)c1,-22,1.0,7%,8,17,
O=C(Cc1cccs1)Nc1nc2c(s1)CCCC2,-18,2.2,0%,1,11,
COc1ccc(C)cc1S(=O)(=O)N(CC(=O)O)c1ccccc1,-11,0.2,-3%,-8,2,
CC12CCC(C(=O)NCCc3ccccc3)(OC1=O)C2(C)C (configuration not stated),·,0.8,7%,0,1,
COc1ccc(N(CC(=O)NC2CCCCC2)C(=O)CNC(=O)c2ccco2)c(OC)c1,-12,1.9,-12%,4,0,
Cc1ccc(NC(=S)NCc2ccc3c(c2)OCO3)c(C)c1,-24,0.6,7%,-4,4,
N#CCCN(C(=O)COC(=O)C1=COCCO1)c1ccc(F)cc1,·,-1.9,·,-3,·,
COC(=O)c1sccc1NC(=O)CSc1ccccc1NS(=O)(=O)c1ccc(Br)cc1,-7,3.4,-4%,-2,32*,
CC(=O)Nc1ccc(NC(=O)Oc2ccccc2)cc1,-27,2.8,-10%,4,5,
Cn1c(=O)c2c(ncn2CC(=O)Nc2ccc3c(c2)OCO3)n(C)c1=O,·,3.7,·,-4,·,
O=C(CN1C(=O)c2cccnc2Oc2ccc(Cl)cc21)NCCCc1ccccc1,·,1.1,·,?,·,
COc1ccccc1CN1CCCC(CNC(=O)c2cccc3ccccc23)C1 (configuration not stated),·,0.0,·,-13,·,
OCc1nn2c(c1Br)NC(c1ccccc1)CC2C(F)(F)F (configuration not stated),-12,-0.5,6%,2,3,
CCn1c(SCC(=O)NCc2ccc(C)cc2)nnc1-c1ccncc1,-53,5.1,-2%,14,5,
CCCC1/C(=N/O)CC(c2ccccc2)NC1c1ccccc1 (configuration not stated),·,-0.2,1%,-10,-19,
O=C(CCc1ccc(S(=O)(=O)N2CCOCC2)cc1)N1CCN(Cc2ccc3c(c2)OCO3)CC1,19,1.5,-5%,1,-6,
CCN(CC)c1nc(Nc2ccccc2)nc(Oc2ccc(=O)[nH]n2)n1,7,-1.1,-8%,-10,-4,
COc1cccc(C2c3c(oc4ccccc4c3=O)C(=O)N2CCCN2CCOCC2)c1 (configuration not stated),-23,4.8,·,8,4,Arbovirus anti repeat=2
COc1ccc(CCNC(=O)CSc2nnc(-c3ccco3)c(-c3ccco3)n2)cc1OC,·,20,·,-1,·,
COC(=O)c1nnn(-c2nonc2N)c1CN1CCc2ccccc21,-15,-1.7,-3%,-9,18,
O=P1(N(CCCl)CCCl)NCCCO1 (configuration not stated),·,2.3,·,-9,·,
COc1ccc(N2CCN(S(=O)(=O)c3ccc(OC)c(C(=O)N4CCCCC4)c3)CC2)cc1,·,-10,·,5,·,
Nc1cc(C2CCCC2)nn1-c1ccccc1,-39,5.2,-4%,-2,-11,
O=C(Nc1ccccc1Cc1ccccc1)c1oc2ccccc2c1COc1ccccc1,-34,-1.9,7%,4,-12,
